# CDC25B-CDK2 inh = human CDC25B-CDK2/CyclinA binding inhibition | z-score (test concentration not listed) | HTRF CDC25B-CDK2/CyclinA binding, anti-His/anti-Flag; hits give high values | AID 1259370 | hit rate 0.72% among 94,000 | P30305+P24941;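 note: score is relative to mean and SD of negative controls; strong numbers were not always called active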
# TAR Tat displ = HIV-1 TAR-Tat binding disruption | HIV-1 TAR RNA, Tat peptide displacement FRET; hits give high values | z-score (no concentration beside the values) | hit rate 0.6% among 100,000 | AID 1259389;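 note: score is relative to mean and SD of negative controls; some compounds called inactive have numbers as strong as hits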
# * marks the source's active call; other numbers are inactive results; . = no result given.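 Rule for the calls: active = z-score from 3 up in half or more of its runs; inactive = the rest.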 An excerpt; count on the stated rates, not on these rows.
mol,CDC25B-CDK2 inh,TAR Tat displ
C[C@@H]1C[C@H]2CC[C@H](O2)[C@H](C)C(=O)O[C@@H](C)C[C@@H]2CC[C@@H](O2)[C@@H](C)C(=O)O[C@H](C)C[C@H]2CC[C@H](O2)[C@H](C)C(=O)O[C@@H](C)C[C@@H]2CC[C@@H](O2)[C@@H](C)C(=O)O1,.,1.9
COc1cc(C2c3c(c4ccccc4oc3=O)Oc3c2c(=O)oc2ccccc32)cc(OC)c1OC,-2.3,.
CCCCCCCCCCCCCC(=O)O[C@@H]1[C@@H](C)[C@@]2(O)[C@@H](C=C(CO)C[C@@]3(O)C(=O)C(C)=C[C@@H]23)C2C(C)(C)[C@@]21OC(C)=O (stereo partly specified),-1.2,3.7
C#CCOc1ccc(C2SCC(=O)Nc3n[nH]c(C)c32)cc1OC (stereo unspecified),-3.6,1.6
CO[C@@H]1[C@H](OC(=O)NC(=O)CCl)CC[C@]2(CO2)[C@H]1[C@@]1(C)O[C@@H]1CC=C(C)C,.,1.3
C[C@@H]1CC[C@H]2[C@H](C)[C@H]3CC[C@@]4(O)[C@@H]5CC(=O)[C@H]6CC(=O)CC[C@]6(C)[C@H]5C[C@H]4[C@@H]3CN2C1,.,2.4
CCOC(=O)C1=C(N)OC(C)=C(C(=O)OCc2ccccc2)C12C(=O)N(C)c1ccccc12 (stereo unspecified),1.1,.
CCOc1ccccc1NC(=O)N1Cc2ccccc2-n2cccc2C1C (stereo unspecified),.,0.04
CSC1=NN1c1cc(C)nc(N)n1,-0.63,-1.8
O=c1[nH]c2ccccc2n1CCCN1CCC(n2c(=O)[nH]c3cc(Cl)ccc32)CC1,-0.2,.
CCC(=O)N1N=C2C3CCN(CC3)C2C1c1ccc(Cl)cc1 (stereo unspecified),-0.94,2.7
Cc1ccc(CN2CCN(C(C)C)CC2)cc1,-1.1,0.74
CC1(C)C2CCC1(C)C(N1CCNCC1)C2 (stereo unspecified),-1.4,.
CCOc1cc(C2SCC(=O)Nc3n[nH]c(C)c32)ccc1OCC(N)=O (stereo unspecified),-2.2,3.3
CCn1c(C(=O)N2CCC(C(=O)N3CCC4(CC3)OCCO4)CC2)cc2sccc21,-0.71,.
CCc1ccc(C2SCC(=O)Nc3c2c(C)nn3-c2ccc(F)cc2)cc1 (stereo unspecified),-1.4,0.19
C[N+](C)(C)CC(=O)O,-0.49,.
CC(=O)N1CCC2(CC1)CC(=O)c1cc(OCC(=O)N3CCC4(CC3)OCCO4)ccc1O2,0.75,.
C[C@H]1CC[C@@H]2N(C1)C[C@H]1[C@@H]3C[C@H]4[C@@H](CC(=O)[C@H]5C[C@@H](O)CC[C@@]54C)[C@@H]3CC[C@@H]1[C@]2(C)O,.,2.6
Cc1cc(C)nc(-n2nc(-c3ccccc3)c3c2NC(=O)CSC3c2ccc(F)cc2F)n1 (stereo unspecified),-1.3,-0.25
CSc1ccc(C2SCC(=O)Nc3c2c(C)nn3-c2nc(C)cc(C)n2)cc1 (stereo unspecified),-1.8,1.7
CCCCCn1cc(C(=O)c2ccc(C)c3ccccc23)c2ccccc21,.,-1.5
COc1ccc(O)c(CN2CCN(Cc3ccc(Br)cc3)CC2)c1,-1.1,1.8
O=C(O)c1c[nH]c2ccc(S(=O)(=O)N3CC4CC(C3)c3cccc(=O)n3C4)cc2c1=O (stereo unspecified),.,0.6
CCCCC12CN3CC(C)(CN(C1)C3c1cccnc1)C2=O (stereo unspecified),-1,-0.46
C(#CCN1CCOCC1)COCC#Cc1ccccc1,-2.6,0.77
ClC1=C(Cl)C2(Cl)C3C(Cl)C=CC3C1(Cl)C2(Cl)Cl (stereo unspecified),.,-0.54
O=C(NC1CN2CCC1CC2)c1cc2ccoc2cn1 (stereo unspecified),1.3,.
c1ccc2c(c1)CCc1c-2[nH]c2ccccc12,-1.2,.
CCOC(=O)CN1C(=O)C2(C(C(=O)OCC)=C(N)OC3=C2C(=O)CC(C)(C)C3)c2ccccc21 (stereo unspecified),-0.33,.
CCCCOc1ccc(C2SCC(=O)Nc3c2c(=O)[nH]n3C(C)C)cc1 (stereo unspecified),-2.7,.
NCC(CC(=O)O)C1CCCCC1 (stereo unspecified),-1.3,2.6
Cc1ccccc1C1SCC(=O)Nc2c1c(C)nn2-c1ccccc1 (stereo unspecified),0.15,0.69
CCCCCOc1ccc2c(c1)oc(=O)c1ccccc12,-1.4,1.4
O=c1c2ccccc2nc(/C=C/c2ccco2)n1-c1cccc(O)c1,1.9,-0.49
CC(C)=CCC12CN3CCN(CC(C3)C1O)C2 (stereo unspecified),-0.19,.
Cc1c(C(c2ccc3c(c2)OCO3)c2c(O)c3ccccc3oc2=O)c(=O)n(-c2ccccc2)n1C (stereo unspecified),-0.13,.
COc1ccc(CSC2C(C(=O)NNC(=O)c3ccccc3)C3CCN2CC3)cc1 (stereo unspecified),-0.75,.
CCCCCCCC(C)(C)c1ccc([C@H]2CCC[C@@H](O)C2)c(O)c1,.,1.5
CCCCn1c(N)c(C(=O)OC)c2nc3ccccc3nc21,-0.69,1.3
CC(C)(C)CC(=O)NC1CCSC1=O (stereo unspecified),-1.6,2
Clc1cccc(CNCCc2c[nH]c3ccccc23)c1,1.2,1.2
CCCCCn1c(N)c(C(=O)OCC)c2nc3ccccc3nc21,-2.4,.
COc1cc2c(cc1O)CC1c3c(cc(O)c(OC)c3-2)CCN1C (stereo unspecified),.,7.7*
CSc1ccc(C2c3cccn3-c3ccccc3CN2C(=O)NCc2ccco2)cc1 (stereo unspecified),.,0.1
Cc1ccc2[nH]cc(CC(C)N)c2c1 (stereo unspecified),-0.6,.
Cn1cc(C(=O)Cc2ccccc2)c2ccccc21,0.42,-0.44
COC(=O)[C@]1(C)CC[C@]2(C)CC[C@]3(C)C4=CC=C5C(=CC(=O)C(O)=C5C)[C@]4(C)CC[C@@]3(C)[C@@H]2C1,.,0.35
CCOC(=O)c1c(C)nc2c(C3CCCN3C)cccn12 (stereo unspecified),-1.1,0.96
COc1ccc2c(c1O)-c1cccc3c1[C@@H](C2)N(C)CC3,-2.4,.

# Other compounds follow:
# Order of results: CDC25B-CDK2 inh, TAR Tat displ
> CCOC(=O)C1CCC(CNC(=O)N2Cc3ccccc3-n3cccc3C2c2cccs2)CC1 (stereo unspecified)
 : ., 0.58
> O=C1/C(=C\c2cccnc2)N2CCC1CC2
 : -1.6, .
> Cc1ccc(S(=O)(=O)N2CCCCC2c2cccnc2)cc1 (stereo unspecified)
 : 1.1, 2
> CCC12CN3CN(CC(C)(C3)C1=O)C2
 : 0.14, 0.63
> O=C1C2CN3CCN(C2)CC1(c1ccccc1)C3
 : -0.33, -0.18
> C#CC1(O)CC(C)NC2CCCCC21 (stereo unspecified)
 : -1.2, .
> CC(C)CCNC(=O)N1Cc2ccccc2-n2cccc2C1C (stereo unspecified)
 : ., -1.5
> O=C(NCCOC(=O)C(Cl)(Cl)Cl)C(Cl)(Cl)Cl
 : -1.8, .
> O=C(NC1CN2CCC1CC2)c1cccc(Cl)c1 (stereo unspecified)
 : -0.63, .
> CCCCCn1cc(C(=O)Cc2ccccc2Cl)c2ccccc21
 : ., 1.4
> N[C@@]1(C(=O)O)CC[C@@H](C(=O)O)C1
 : -0.82, .
> OC(c1ccc(Cl)s1)(c1ccc(Cl)s1)C1CN2CCC1CC2 (stereo unspecified)
 : -1.9, .
> Cc1ccc(COc2ccc(C3SCC(=O)Nc4n[nH]c(C)c43)cc2)cc1 (stereo unspecified)
 : 0.71, 1.8
> c1ccc(N=Nc2ccccc2)cc1
 : ., 1.8
> CCCCCn1cc(C(=O)Cc2ccc(OC)cc2)c2ccccc21
 : ., -0.17
> O=C(c1ccccc1F)c1cn(CC(=O)N2CCCC2)c2ccccc12
 : -2.2, -1.5
> CCOC(=O)C1C(C=C(C)C)C1(C)C (stereo unspecified)
 : ., 0.61
> COP(=S)(OC)SCn1nnc2ccccc2c1=O
 : ., 0.99
> COc1cc2c(cc1OC)[C@@H]1C(=O)c3ccc4oc(C(C)C)cc4c3O[C@@H]1CO2
 : ., 2
> CCCCCCC(C)(C)c1ccc([C@@H]2C[C@H](O)CC[C@H]2CCCO)c(O)c1
 : ., 2.4
> CCN1CCN(c2ncnc3c2cnn3C)CC1
 : ., 2.5
> O=C(Nc1ccc2c(c1)OCCO2)N1Cc2ccccc2-n2cccc2C1c1cc(F)cc(F)c1 (stereo unspecified)
 : ., 0.72
> Cc1[nH]nc2c1C(c1cccc(O)c1)SCC(=O)N2 (stereo unspecified)
 : -1.4, 0.94
> CC(C)NC(C)Cc1ccc(I)cc1 (stereo unspecified)
 : 5, .
> CCOC(=O)c1c(C)n(C2CCCCC2)c2ccc(O)cc12
 : 0.42, .
> Cc1ccc(-n2nc(C)c3c2NC(=O)CSC3c2ccsc2)cc1 (stereo unspecified)
 : -2.4, -0.43
> Cc1ccccc1Cc1c(C)nc2c(C(=O)N3CCC4(CC3)OCCO4)cnn2c1C
 : -0.48, .
> O=C1C(Cl)=C(Cl)C(=O)c2ccccc21
 : -0.19, .
> CN1CC=C(c2noc(CCC(=O)N3CCN(c4ccccn4)CC3)n2)CC1
 : -0.55, .
> NCCc1c[nH]c2ccc(C(N)=O)cc12
 : -1.1, .
> CCCC1N2CC3(C)CN1CC(C)(C2)C3=O (stereo unspecified)
 : -0.75, .
> Oc1ccccc1C1NCc2ccccc2-n2cccc21 (stereo unspecified)
 : 0.35, .
> CN1CCN(c2ccccc2/C=N\NC(N)=S)CC1
 : -2.3, .
> CCO/C(C=C(C#N)C#N)=C/C(=C=N)C#N
 : -0.88, .
> C[C@]12CC[C@H]3[C@@H](CCC4=CC(=O)CC[C@@H]43)[C@@H]1CC[C@@H]2O
 : ., -1
> Cc1ccc(-n2nc(C)c3c2NC(=O)CSC3c2ccc(F)cc2F)cc1 (stereo unspecified)
 : -0.73, 0.07
> CN([N+](=O)[O-])S(=O)(=O)N(C)[N+](=O)[O-]
 : -2.7, .
> CN1CCCCC1c1ccc(-c2cccnc2)nc1 (stereo unspecified)
 : ., 1.7
> CCCC(C)n1[nH]c(=O)c2c1NC(=O)CSC2c1ccc(OCC)cc1 (stereo unspecified)
 : -2.2, 0.4
> CCOc1ccc(NC(=O)N2Cc3ccccc3-n3cccc3C2C(C)C)cc1 (stereo unspecified)
 : ., -0.07
> CCc1nn(-c2ccccc2)c(-n2c(C)ccc2C)c1C#N
 : 1.2, 1.6
> CCCCCCC(C)(C)c1ccc([C@H]2C[C@@H](O)CC[C@@H]2CCCO)c(O)c1
 : ., 1.9
> CC[N+]1(C)CCCC(OC(=O)C(O)(c2ccccc2)c2ccccc2)C1 (stereo unspecified)
 : ., -0.66
> CC12CN3CC(C)(CN(C1)C3c1cccs1)C2 (stereo unspecified)
 : -0.27, -0.04
> O=c1ccc2cc(S(=O)(=O)N3CC4CC(C3)c3cccc(=O)n3C4)ccc2[nH]1 (stereo unspecified)
 : ., 1.4

# Part of the list above in order of SMILES length, ascending:
# Order of results: CDC25B-CDK2 inh, TAR Tat displ
> CCCC1N2CC3(C)CN1CC(C)(C2)C3=O (stereo unspecified)
 : -0.75, .
> CCCC(C)n1[nH]c(=O)c2c1NC(=O)CSC2c1ccc(OCC)cc1 (stereo unspecified)
 : -2.2, 0.4
> O=c1ccc2cc(S(=O)(=O)N3CC4CC(C3)c3cccc(=O)n3C4)ccc2[nH]1 (stereo unspecified)
 : ., 1.4

# (cont.)
# Order of results: CDC25B-CDK2 inh, TAR Tat displ
> O=C(c1cccs1)C1CN2CCC1CC2 (stereo unspecified)
 : -0.85, 0.78
> CC(=O)N1CC(=O)Nc2ccc(F)cc2C1c1ccccc1 (stereo unspecified)
 : 2.5, .
> CCOP(=S)(OCC)Oc1nc(Cl)c(Cl)cc1Cl
 : ., -0.02
> Cc1[nH]nc2c1C(c1ccc(Cl)cc1)SCC(=O)N2 (stereo unspecified)
 : -1.4, 1.4
> CN1C2CCC1CC(OC(c1ccccc1)c1ccccc1N)C2 (stereo unspecified)
 : -1.4, .
> Cc1cc(NC(=O)N2Cc3ccccc3-n3cccc3C2C)ccc1Br (stereo unspecified)
 : ., 1.3
> O=C(c1cc2c(=O)[nH]c3ccccc3c2s1)N1CCC2(CC1)OCCO2
 : -1.5, .
> COc1ccc(C2SCC(=O)Nc3c2c(=O)[nH]n3C(C)C)cc1OC (stereo unspecified)
 : -0.51, 0.41
> CCN1CCN(Cc2csc3c2CCCC3)CC1
 : ., -0.34
> COc1ccc(OC)c(CC2C(=O)N(C)C(=O)N(C)C2=O)c1
 : -3.4, 1.9
> COc1cc(OC)c(NC(=O)N2Cc3ccccc3-n3cccc3C2c2cccs2)cc1Cl (stereo unspecified)
 : ., -0.1
> CC1CN(Cc2ccccc2)CCN1 (stereo unspecified)
 : -2.2, .
> O=S1(=O)N(Cc2cccc(F)c2)CCCN1Cc1cccc(F)c1
 : ., 0.94
> Cc1[nH]nc2c1C(c1ccc(O)cc1)SCC(=O)N2 (stereo unspecified)
 : -3.1, 3
> Cc1c(C(=O)N2CCC3(CC2)OCCO3)oc2ccc(S(=O)(=O)N3CCOCC3)cc12
 : 0.89, .
> O=C1CCC[C@@H]2[C@H]3CCCN4CCC[C@@H](CN12)[C@@H]34
 : ., 9.8
> COc1ccc2nc3sc(C(=O)N4CCC5(CC4)OCCO5)cc3cc2c1
 : -0.16, .
> CC(C)(C)P(=Nc1ccccc1)(O[Si](C)(C)C)C(C)(C)C
 : 0.15, .
> Fc1ccc(CNC2CN3CCC2CC3)cc1 (stereo unspecified)
 : -0.88, -1.6
> O=c1ccc2cc(O[C@@H]3O[C@H](CO)[C@@H](O)[C@H](O)[C@H]3O)c(O)cc2o1
 : -2.8, 2.1
> COc1ccc(OC)c(C2=NCC(=O)Nc3c2oc2ccc(Cl)cc32)c1
 : -0.51, 1.9

# Compound profiles, from the list above:
# COc1ccc2nc3sc(C(=O)N4CCC5(CC4)OCCO5)cc3cc2c1 in the list: CDC25B-CDK2 inh = -0.16; TAR Tat displ = .
# O=c1ccc2cc(O[C@@H]3O[C@H](CO)[C@@H](O)[C@H](O)[C@H]3O)c(O)cc2o1 in the list: CDC25B-CDK2 inh = -2.8; TAR Tat displ = 2.1
